Assay outcomes: PubChem, National Center for Advancing Translational Sciences (NCATS)
EPAC2 ant val: Validation qHTS for antagonist of cAMP-regulated guanine nucleotide exchange factor 4 (EPAC2); EPAC2 Rap1B BODIPY-GDP exchange, fluorescence; 1.7% of 16,000 active; Potency, µM (highest dose often 112 µM), inactives show at the highest dose activity, negative = inhibition, most hits filed as inhibitors; Rap guanine nucleotide exchange factor 4 (Homo sapiens), Q8WZA2; active = well fitted inhibition curve with a large enough effect; inconclusive = small, poorly fitted or top-dose-only effect; inactive = no such curve, though single readings can be large or run the other way;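 note: 100% = activation by cAMP agonist control; nearly all actives have a fitted effect of over 40% in size; the record reuses the description of the EPAC1 agonist screen; inactives centre near -10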
Target sequence (Q8WZA2 whole entry, looked up): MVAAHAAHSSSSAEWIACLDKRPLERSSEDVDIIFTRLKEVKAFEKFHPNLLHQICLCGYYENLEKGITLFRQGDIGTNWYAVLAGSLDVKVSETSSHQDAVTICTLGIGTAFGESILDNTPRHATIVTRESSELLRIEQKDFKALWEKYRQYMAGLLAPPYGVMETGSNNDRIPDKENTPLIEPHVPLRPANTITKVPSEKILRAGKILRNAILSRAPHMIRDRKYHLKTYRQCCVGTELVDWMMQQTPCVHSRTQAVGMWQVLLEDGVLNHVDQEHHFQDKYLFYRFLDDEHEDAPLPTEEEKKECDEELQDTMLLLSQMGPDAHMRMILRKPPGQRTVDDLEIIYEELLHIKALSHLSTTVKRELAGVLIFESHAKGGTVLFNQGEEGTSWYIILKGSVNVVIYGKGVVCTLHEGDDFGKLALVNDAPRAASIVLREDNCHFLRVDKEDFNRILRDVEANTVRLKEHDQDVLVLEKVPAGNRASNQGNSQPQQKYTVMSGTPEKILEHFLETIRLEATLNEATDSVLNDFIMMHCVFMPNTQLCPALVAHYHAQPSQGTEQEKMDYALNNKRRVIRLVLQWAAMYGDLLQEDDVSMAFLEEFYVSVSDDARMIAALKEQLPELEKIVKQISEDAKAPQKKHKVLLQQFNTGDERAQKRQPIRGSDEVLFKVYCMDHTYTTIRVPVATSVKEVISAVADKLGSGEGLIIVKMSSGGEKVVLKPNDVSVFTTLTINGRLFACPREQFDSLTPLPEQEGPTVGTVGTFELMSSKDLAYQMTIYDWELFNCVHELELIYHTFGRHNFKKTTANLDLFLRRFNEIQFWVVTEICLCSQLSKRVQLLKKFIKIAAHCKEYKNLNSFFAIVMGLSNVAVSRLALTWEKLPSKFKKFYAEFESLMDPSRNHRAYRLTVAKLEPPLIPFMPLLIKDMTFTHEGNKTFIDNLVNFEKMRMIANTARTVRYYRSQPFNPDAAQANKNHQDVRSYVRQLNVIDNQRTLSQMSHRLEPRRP
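Normalized against a 6.5 mM cAMP agonist control, compounds were tested on 100 nM EPAC2 exchanging Rap1B-bound BODIPY-GDP (250 nM) for 50 uM GDP. Fluorescence drop (ex 480, em 540 nm) was tracked at room temperature over 30 min at 5-min intervals.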
* = called active by the depositor; ? = inconclusive; & = joins results of further samples; ! = repeats disagree; [ ] = dose if it differs, or a comment. Potency is the fitted concentration of half-maximal effect. These rows are one share of the data; count on the stated rates, not on these rows.

Structure | EPAC2 ant val
CNc1cc(-c2ccccc2CN(C)C)ncn1 | -6%
Cc1c(C(=O)NCc2ccco2)cnn1-c1ncc2c(n1)-c1ccccc1CC2 | -17%
CCCc1nc2cccnc2n1C1CCN(C(=O)CC2NC(=O)c3ccccc32)CC1 (centres undefined) | -16%
Cc1cccc(CNC(=O)c2cnn(-c3nccc(-c4cc(C)sc4C)n3)c2C)n1 | -21%
CC(=O)Nc1ccc(S[C@@H](CCN2CC[C@H](C(C)(C)C)CCC2=O)c2ccccc2)cc1 | ?
NCC(O)COc1cccc2ccccc12 (centres undefined) | -5%
COCCNc1nc(-c2c(C)noc2C)nc2ccccc12 | -23%
CC(=O)OCC(=O)[C@@]12OC3(CCCC3)O[C@@H]1C[C@H]1[C@@H]3CCC4=CC(=O)C=C[C@]4(C)[C@@]3(F)[C@@H](O)C[C@@]12C | ?
CN1CCc2cc(Cl)c(O)cc2[C@@H](c2ccccc2)C1 | 5%&3%&-13%
COc1ccccc1CN1CC[C@@]2(CCCN(C(=O)c3cnccn3)C2)C1 | -19%
COC(=O)[C@H](NC(=O)c1cc(-c2ccccc2)nc2ccccc12)c1ccccc1 | -24%&-38%
O=C(/C=C/c1ccccc1)c1ccc(O)cc1 | -37%
N#CCCn1c(=O)c(-c2ccc(F)cc2)nc2cnc(N3CCOCC3)nc21 | 1%
Cc1ncc2c(c1CNS(=O)(=O)N(C)C)CCN(C(=O)c1ccc(F)cc1Cl)C2 | -32%
CCC1CN(CC(=O)NC(C)CO)Cc2cc(OC)ccc2O1 (centres undefined) | -15%

Two entries from above, set out differently:
> N#CCCn1c(=O)c(-c2ccc(F)cc2)nc2cnc(N3CCOCC3)nc21
  EPAC2 ant val: 1%
> CC(=O)Nc1ccc(S[C@@H](CCN2CC[C@H](C(C)(C)C)CCC2=O)c2ccccc2)cc1
  EPAC2 ant val: ?

Following part:
Structure | EPAC2 ant val
O=C(c1cccc(F)c1)N1CCC2(CC1)CN(C(c1ccccc1)c1ccccc1)C2 | ?
O=[N+]([O-])c1ccc2cn[nH]c2c1 | -26%
Cc1c(C(=O)NCCCN2CCCC2=O)cnn1-c1ncc2c(n1)-c1ccccc1CC2 | -27%
O=C(Oc1ccccc1)c1cccc(C(=O)Oc2ccccc2)c1 | 17%[239 µM]
FC(F)(F)c1ccccc1-c1nc(NCc2cccnc2)c2ccccc2n1 | -20%
COc1cccc(-c2cncnc2N(C)Cc2ccco2)c1 | -17%
COc1cccc(-c2cc3c(c(OC)c2)OCCN(Cc2cccn2-c2ccccn2)C3)c1 | 3%
Cc1cc(-c2ccc(N=Nc3c(S(=O)(=O)O)cc4cc(S(=O)(=O)O)cc(N)c4c3O)c(C)c2)ccc1N=Nc1c(S(=O)(=O)O)cc2cc(S(=O)(=O)O)cc(N)c2c1O | 50µM*
CC[C@@H](C)[C@H]1O[C@]2(CC[C@@H]1C)C[C@@H]1C[C@H](C/C=C(/C)[C@H](O[C@@H]3C[C@H](OC)[C@H](O[C@@H]4C[C@H](OC)[C@@H](O)[C@H](C)O4)[C@H](C)O3)[C@@H](C)/C=C\C=C3CO[C@@H]4[C@H](O)C(C)=C[C@@H](C(=O)O1)[C@]34O)O2 (tested in a mixture with another compound) | -30%
CO[C@H]1[C@H](NC(=O)c2ccco2)c2ccccc2C12CCN(Cc1cc(Cl)ccc1O)CC2 | -33%
O=C(O)/C=C/C(O)c1ccc(Cl)cc1 (centres undefined) | -15%&-20%
C#CCCCCCCCCCCCC(O)CC(O)CO (centres undefined) | ?
CC(=O)ON(C(C)=O)c1ccc(/C=C2/C=Cc3ccccc32)cc1 | -33%
C[C@@](N)(C(=O)O)c1ccc(S(=O)(=O)O)cc1 | -14%
C=CCN([C@@H](CC(C)C)C(=O)OC)S(=O)(=O)N(CC=C)[C@@H](CC(C)C)C(=O)OC | ?
C[C@@H]1CN(Cc2ccc3c(c2)CN(Cc2cn[nH]c2-c2ccccc2)CCO3)C[C@H](C)O1 | 2%
O=C(c1ccnc(-n2cnnn2)c1)N1CCOc2ccc(C(O)CCc3ccccc3)cc2C1 (centres undefined) | -9%
C=CCNC1=C2C[C@@H](C)C[C@H](OC)[C@H](O)[C@@H](C)/C=C(\C)[C@H](OC(N)=O)[C@@H](OC)/C=C\C=C(/C)C(=O)NC(=CC1=O)C2=O | -26%
Cc1nc2cc(NC(=O)[C@@H]3C[C@@H](Sc4ccccn4)CN3C3CCCCCC3)ccc2s1 | 4%
Cc1cc(Cl)ccc1OCC(=O)N1CCOc2ccc(CN3C[C@@H](C)O[C@@H](C)C3)cc2C1 | -11%
CCN[C@H]1CN(CCCOC)S(=O)(=O)c2sc(S(N)(=O)=O)cc21 | -29%[56.6 µM]
N=c1ccn2c(n1)O[C@H]1[C@H](O)[C@@H](CO)O[C@H]12 | ?
CO | -5%
Cc1cc(C)cc(CN2CCOc3ccc(CN4CCC(O)(c5cccnc5)CC4)cc3C2)c1 | -12%
COc1ccccc1CN1CCOc2ccc(CN3CCC(Oc4cccnc4)CC3)cc2C1 | ?
CCC(C)[C@H]1COCCS(=O)(=O)N1Cc1ccc(C)cc1 (some centres undefined) | 79µM*
CCCN1CCC(=O)N([C@H](CO)CC(C)C)CC1 | -20%
COc1ccc(C(=O)N2CCC3(CCCN(c4ccncc4)C3)CC2)cc1 | -25%
C=CC(C1=CC(=O)C(OC)=C(OC)C1=O)c1ccccc1 (centres undefined) | ?
CC(C)(C)CC(C)(C)c1ccc(O)c(-n2nc3ccccc3n2)c1 | -7%
Cc1ccc2nc(-c3ccccc3C)c(CN(CC3CCCO3)C(=O)c3cccs3)cc2c1 (centres undefined) | -11%
O=S(=O)(c1ccccc1)N1CCC2(CC1)CN(c1ccccc1)C2 | ?
O=C(NCc1nnc2n1CCN(Cc1ccccc1C(F)(F)F)CC2)c1ccncc1 | 11%
COc1ccc(CNc2nc(-c3ccoc3)nc3ccccc23)c(OC)c1 | -23%
Cc1cnc(C)c(-c2cccc3c2OC(CNC(=O)c2cc(C)on2)C3)n1 (centres undefined) | 27%
C=CC(C)(O)CC1[C@@]2(C)CCCC(C)(C)C2CC[C@]1(C)O (some centres undefined) | -14%
C[C@H]1CCC(=O)N([C@H](CN=[N+]=[N-])Cc2ccccc2)CC1 | -28%
COc1cc(OC)c2c(c1Cl)OC1(C2=O)C(O)=CC(=O)CC1C (centres undefined) | -8%
O=C(NCC1CCC2(CCN(Cc3cccc4ncccc34)CC2)O1)c1ccccc1 (centres undefined) | -27%
COc1ccc2c(c1)OC(C)CN(CCC(=O)NCC1OCCc3ccccc31)C2 (centres undefined) | -1%
Cc1ccccc1C(=O)N1CCc2c(cnc(C)c2CNC(=O)CN2CCCCC2)C1 | -21%
O=C(c1ccncc1)N1CCC2(CCCN(c3ccccc3)C2)CC1 | -16%
CN(C)C(=O)c1ccc(-c2ccc3ncnc(NCCN4CCOCC4)c3c2)cc1 | -11%
c1nc(NC2CCNCC2)c2cc(-c3ccoc3)ccc2n1 | -14%
COc1cc(=O)n2c(c1C(=O)NC(C)c1ccco1)CCN(C(=O)c1ccccc1SC)CC2 (centres undefined) | -1%
Cc1nc2ccccc2nc1/C=C/c1ccc(N(C)C)cc1 | ?
CC[N+](C)(C)Cc1ccccc1Br | ?
CN(C)CCN(Cc1ccccc1)c1ccccn1 | 5%
COCCNc1ncnc2ccc(-c3ccoc3)cc12 | -8%
CCCCCCCCCCCC[n+]1ccc(C)c2ccccc21 | ?
O=C1NCCN1CCN1CCC(c2cn(-c3ccc(F)cc3)c3ccc(Cl)cc23)CC1 | 8%&6%
CC/C=C\C/C=C\C/C=C\C/C=C\C/C=C\CCCC(=O)O | 13%
CCCCNC(=O)[C@@H]1CC=C[C@@H]2CCN(Cc3ccc(Cl)c(Cl)c3)C(=O)[C@@H]21 | -28%
CN(C)CC(C)(O)c1ccc2c(c1)CN(Cc1cccn1-c1cccnc1)CCO2 (centres undefined) | -30%
O=S(=O)(NCCCCCCc1ccccc1)c1cccc2c(Cl)cccc12 | ?
Cc1cccc(-c2[nH]c(C(C)(C)C)nc2-c2ccc3nccnc3c2)n1 | -12%
C=C(C)C1COc2cc3oc(=O)ccc3cc2O1 (centres undefined) | -10%
Fc1ccc(Nc2ccnc(-c3ccccc3C(F)(F)F)n2)cc1 | ?
O=c1c(-c2ccc(Cl)cc2)nc2cncnc2n1Cc1ccccc1Cl | -22%
NCC1O[C@H](O[C@@H]2C(O)[C@H](O[C@H]3OC(CO)C(O)C(N)C3O)[C@@H](N)C[C@H]2N)[C@@H](N)CC1O (some centres undefined) | -4%

Further results
Structure | EPAC2 ant val
O=c1c(O)c(-c2cc(O)c(O)c(O)c2)oc2cc(O)cc(O)c12 | 35µM*!
COCCn1c(=O)c(-c2ccc(F)cc2)nc2cnc(Oc3ccccc3)nc21 | -5%
CCCCN(CCCC)c1ccc(/C=C/c2ccnc3ccccc23)cc1 | 130%[activator]
Cc1cccc(CNc2ccnc(-c3cccc(C#N)c3)n2)c1 | ?
N[C@H](C(=O)O)c1cc(O)cc(O)c1 | -8%&-15%&-10%&-6%
Cn1cccc1C(=O)N1CCC2(CC1)CN(c1cccc(-c3ccccc3)c1)C2 | ?
CC1CC2C3CCC4=CC(=O)C=C[C@@]4(C)[C@]3(F)C(O)C[C@]2(C)[C@]1(O)C(=O)CO (some centres undefined) | -11%&-3%
CN(C)c1ncc2nc(-c3ccc(F)cc3)c(=O)n(Cc3cccs3)c2n1 | 1%
O=C1NC(=O)/C(=C/c2ccc3nccnc3c2)S1 | -12%
COc1ccc(-c2cc(C)cc3c2OC(CNC(=O)/C=C/c2ccncc2)C3)nn1 (centres undefined) | ?
CS(=O)(=O)c1ccc(-c2cc(Br)sc2-c2ccc(F)cc2)cc1 | 40µM*
CC[N+](CC)(CCNC(=O)C(=O)NCC[N+](CC)(CC)Cc1ccccc1Cl)Cc1ccccc1Cl | -28%&-15%
CCN1CCCC(OC(=O)C(c2ccccc2)c2ccccc2)C1 (centres undefined) | -16%
Cc1ncc2c(c1CNC(=O)/C=C/c1cccs1)CCN(C(=O)c1ccc3c(c1)OCCO3)C2 | -27%
Cn1c(=O)c(-c2ccc(F)cc2)nc2cnc(Oc3ccccc3)nc21 | -13%
N#CCCn1c(=O)c(-c2ccccc2)nc2cnc(Nc3ccccc3)nc21 | -19%
CC(C)C[C@@H](CN=[N+]=[N-])N1CCN(CC(C)C)CCC1=O | ?
Cc1cnc(-n2ncc(C(=O)N(C)C3CCOC3)c2C)nc1-c1ccc(F)cc1 (centres undefined) | -9%
O=C(Nc1ccccc1)C12CC1/C(=N\O)c1ccccc1O2 (centres undefined) | -19%
Cc1cnc(CNc2ncnc3ccc(-c4ccccc4CN(C)C)cc23)cn1 | -1%
O=C1c2c(O)cccc2Cc2cccc(O)c21 | -8%&-5%
Nc1nc(NCCc2ccc(O)cc2)nc2nc(-c3ccco3)nn12 | -24%&-21%
CCC1(C2CCN(C(=O)c3ccc4ccccc4c3)CC2)NC(=O)N(CCc2scnc2C)C1=O (centres undefined) | 6%
C=CCN1CCc2c(cc(O)c(O)c2Cl)C(c2ccccc2)C1 (centres undefined) | ?
O=C(c1cnccn1)N1CCC[C@@]2(CCN(Cc3ccncc3)C2)C1 | -21%
COc1ccc(CCNC(=O)c2cnn(-c3nccc(-c4cccs4)n3)c2C)cc1OC | 20%
COC(=O)Nc1nc2ccc(C(=O)c3ccccc3)cc2[nH]1 | -11%[56.6 µM]
Cc1noc(C)c1-c1ccc2ncnc(N3CCOCC3)c2c1 | -15%
COc1ccc(OC)c2c(=S)c3ccccc3[nH]c12 | ?
C[C@H](N)CCCP(=O)(O)O | -10%

Three of these compounds, reformatted:
CC(C)C[C@@H](CN=[N+]=[N-])N1CCN(CC(C)C)CCC1=O
  EPAC2 ant val: ?
Cc1cnc(-n2ncc(C(=O)N(C)C3CCOC3)c2C)nc1-c1ccc(F)cc1 (centres undefined)
  EPAC2 ant val: -9%
O=C(Nc1ccccc1)C12CC1/C(=N\O)c1ccccc1O2 (centres undefined)
  EPAC2 ant val: -19%

Additional entries follow:
Structure | EPAC2 ant val
CC1CC2(C)Oc3ccccc3C3OCC1(COC(=O)Nc1ccccc1)C(C)C32 (centres undefined) | -17%
CCNc1ncc2nc(CCc3ccccc3)c(=O)n(C3CC3)c2n1 | -5%
CCCc1c(OCCCCc2nn[nH]n2)ccc(C(C)=O)c1O | 8.9µM*!
C[C@@H]1CN(Cc2ccc3c(c2)CN(Cc2ccc(Oc4ncccn4)cc2)CCO3)C[C@H](C)O1 | -8%
O=C(c1cnccn1)N1CCC2(CC1)CN(Cc1nccs1)C2 | -15%
CCCn1c(=O)c(C)cn2nc(N)nc12 | ?
C[n+]1cc2c3c(ccc2c2ccc4cc5c(cc4c21)OCO5)OCO3 | -20%&-4%&11%
Cc1c(C(=O)N2CCCCC2)sc2ncnc(NCCN(C)C)c12 | 3%
O[C@H](CCCN1CCN(c2ncc(F)cn2)CC1)c1ccc(F)cc1 | -27%
COC(=O)C[C@H]1c2cc(C(F)(F)F)ccc2S(=O)(=O)N1Cc1ccccc1OC | ?
O=c1c(-c2ccccc2)nc2cncnc2n1C1CC1 | -22%
CC(=O)N1CCC2(CC1)CN(c1ccncc1)C2 | -26%
